# Polio RdRp inh: poliovirus RdRp elongation inhibitors, primary screen, biochemical, fluorescence polarization, total intensity | % elongation, % (compound at 16.7 µg/mL) | 150,000 tested, 0.66% active | Genome polyprotein (Poliovirus type 1 (strain Mahoney)), P03300 | poliovirus polymerase elongation; hits give low values; in the data active = % elongation below about 90%; note: some results filed as inactive read as strong as hits
# Target sequence (P03300 1749-2209 limits assumed): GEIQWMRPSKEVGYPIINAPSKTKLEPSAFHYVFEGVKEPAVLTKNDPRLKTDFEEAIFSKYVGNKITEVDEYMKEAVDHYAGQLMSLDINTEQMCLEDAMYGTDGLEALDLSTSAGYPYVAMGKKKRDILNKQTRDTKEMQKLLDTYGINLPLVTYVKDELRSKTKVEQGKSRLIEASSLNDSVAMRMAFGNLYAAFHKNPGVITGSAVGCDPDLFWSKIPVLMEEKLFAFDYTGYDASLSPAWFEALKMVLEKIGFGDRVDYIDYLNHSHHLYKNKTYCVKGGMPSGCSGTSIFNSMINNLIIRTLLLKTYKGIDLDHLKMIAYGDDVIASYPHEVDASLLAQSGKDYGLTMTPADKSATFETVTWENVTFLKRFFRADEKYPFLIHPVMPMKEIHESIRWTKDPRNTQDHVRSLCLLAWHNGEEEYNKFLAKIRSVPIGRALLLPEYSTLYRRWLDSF
# Polio RdRp inh intensity: also measured in Polio RdRp inh; calls as there; % elongation; measured here: total intensity read-out; formula for this scale not given here;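 total fluorescence in place of polarization; lower means less elongation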
# Active calls of the source: *.
SMILES | Polio RdRp inh | Polio RdRp inh intensity
Cc1cccc(C2CC(=O)Oc3c2c(=O)n(C)c2ccccc32)c1 (stereo not given) | 101 | 97
COc1ccc(C(=O)Nc2nnc(S(=O)(=O)N(C)c3ccc(Cl)cc3)s2)cc1OC | 107 | 106
COc1ccc(-c2cc3nc(C)c(CCC(=O)N4CCN(c5cc(C)ccc5C)CC4)c(C)n3n2)c(OC)c1 | 109 | 110
CSc1nc(C)cc(Nc2cccc(C(=O)O)c2)n1 | 112 | 103
CCc1ccc(OC(=O)CSc2nnc(-c3ccc(OC)c(OC)c3)o2)cc1 | 98 | 98
COc1ccc(CCNC(=O)Cn2nnc(-c3ccc(Cl)cc3)n2)cc1OC | 105 | 101
COc1ccc(N2CCN(C(=O)CCS(=O)(=O)c3cc(Br)cc4c3N(C(=O)C3CC3)CC4)CC2)cc1 | 105 | 108
CCOC(=O)c1ccc(N2C(=O)c3n[nH]c(-c4ccco4)c3C2c2cccc(O)c2)cc1 (stereo not given) | 111 | 109
CCN(C(=O)Cn1cc(S(=O)(=O)Cc2ccccc2Cl)c2ccccc21)c1ccccc1 | 110 | 113
O=C(c1cccc(Cl)c1)N1CCC(c2nc3c(nnn3Cc3ccc(F)cc3F)c(=O)[nH]2)CC1 | 110 | 114
CCC12CN3CC(CC)(CN(C1)C3c1cccc(OC)c1O)C2=O (stereo not given) | 108 | 110
CCOC(=O)C1CCCN(CCC(=O)Nc2cccc(C)c2)C1 (stereo not given) | 104 | 105

# Profiles, looked up by structure. Screens in order: Polio RdRp inh | Polio RdRp inh intensity
# Entry for CCOC(=O)c1ccc(N2C(=O)c3n[nH]c(-c4ccco4)c3C2c2cccc(O)c2)cc1 (stereo not given) = 111 | 109
# Entry for CCC12CN3CC(CC)(CN(C1)C3c1cccc(OC)c1O)C2=O (stereo not given) = 108 | 110
# Entry for CCOC(=O)C1CCCN(CCC(=O)Nc2cccc(C)c2)C1 (stereo not given) = 104 | 105
# Entry for COc1ccc(N2CCN(C(=O)CCS(=O)(=O)c3cc(Br)cc4c3N(C(=O)C3CC3)CC4)CC2)cc1 = 105 | 108
# Entry for CCc1ccc(OC(=O)CSc2nnc(-c3ccc(OC)c(OC)c3)o2)cc1 = 98 | 98

# Other compounds.
SMILES | Polio RdRp inh | Polio RdRp inh intensity
Cc1ccccc1OCCSc1nc2ccc(NC(=O)c3ccco3)cc2s1 | 111 | 112
COc1cc(NC(=O)CNC(=O)Cn2ccc3ccccc3c2=O)cc(OC)c1OC | 103 | 104
Cc1cccc(-c2nc(CS(=O)CC(=O)NCc3ccc(Cl)cc3)c(C)o2)c1 (stereo not given) | 107 | 109
COc1ccccc1CNC(=O)c1cc2cc(S(=O)(=O)N3CCCCC3)ccc2n1C | 115 | 120
Cn1cc(S(=O)(=O)N2CCCCCC2)cc1C(=O)N1CCN(c2ccc(Cl)cc2)CC1 | 105 | 110
CCCN1CCN(c2ncnc3sc(C(=O)Nc4cccc(Cl)c4C)c(C)c23)CC1 | 108 | 109
COc1ccc(-c2nc3ccccc3n3c(-c4ccccc4)c4c(=O)n(C)c(=O)n(C)c4c23)cc1OC | 105 | 108
COC(=O)c1sccc1S(=O)(=O)N(CC(=O)Nc1ccccc1C)c1ccc(Cl)cc1 | 110 | 109
Cc1cc(C)cc(C(=O)N2CC(=O)Nc3ccc(Br)cc3C2c2ccccc2)c1 (stereo not given) | 103 | 110
CCOC(=O)c1cnc(N2CCN(c3cccc(C)c3C)CC2)c2ccccc12 | 111 | 107
CCCSc1nnc(NC(=O)Cc2coc3cc(C)ccc23)s1 | 118 | 119
Cc1nnc2c(N3CCN(c4ccccc4)CC3)nc3ccc(C(=O)c4ccccc4)cc3n12 | 108 | 112

# Next section, starting with the last two of the part before.
SMILES | Polio RdRp inh | Polio RdRp inh intensity
CCCSc1nnc(NC(=O)Cc2coc3cc(C)ccc23)s1 | 118 | 119
Cc1nnc2c(N3CCN(c4ccccc4)CC3)nc3ccc(C(=O)c4ccccc4)cc3n12 | 108 | 112
COC(=O)c1ccc(CN(Cc2ccc(OC)c(OC)c2)S(=O)(=O)c2cc(C(=O)Nc3cccc(C)c3)ccc2F)cc1 | 110 | 101
CC(C)(C)c1ccc(OCC(=O)Nc2ccc(C(=O)OC3CCCCC3)cc2)cc1 | 105 | 114
COc1ccc(-c2nn(-c3ccccc3)cc2C2NC(=O)NC(C)=C2C(=O)OC(C)C)cc1OC (stereo not given) | 108 | 109
CC(=O)Nc1c(C)nn(-c2ccccc2)c1N1CCC(C(=O)Nc2ccc(Cl)cc2C)CC1 | 103 | 101
Cc1cc(OCC(=O)N2CCC(c3nc4ccccc4s3)CC2)ccc1Cl | 111 | 114
O=C(NCc1ccccc1Br)C1CCCN(C(=O)N2CCOc3ccccc32)C1 (stereo not given) | 103 | 107
COc1ccc(C)cc1Nc1nc2ccccc2c2nnc(C)n12 | 105 | 104
COc1ccc(OC)c(NC(=O)c2cc3c(s2)-c2ccccc2SC3)c1 | 106 | 107
O=C(CSc1nc2ccccc2nc1Cc1ccc(Cl)cc1)N1CCCCC1 | 104 | 107
CCCCOc1ccc(C(=O)Nc2onc3c2CCCC3)cc1 | 111 | 115
CS(=O)(=O)N1CCc2cc(C(=O)Nc3ccc(Cl)c(C(F)(F)F)c3)ccc21 | 104 | 107
CCOc1ccc(CCNC(=O)c2ccc3c(c2)N(Cc2ccccc2)C(=O)c2ccccc2S3=O)cc1OCC (stereo not given) | 106 | 105

# Remaining list, next part
SMILES | Polio RdRp inh | Polio RdRp inh intensity
CSC1=NC2(CCN(C(=O)NC3CCCCC3)CC2)N=C1c1ccc(C(C)(C)C)cc1 | 103 | 105
COc1ccc(OC)c(NC(=O)c2cc3c(=O)oc4ccccc4c3s2)c1 | 105 | 106
COc1ccc(NC(=O)C2CCCN(S(=O)(=O)c3cn(C)cn3)C2)cc1Cl (stereo not given) | 101 | 108
CCc1ccccc1NC(=O)N1CCN(C(=O)c2nsc3ccccc23)CC1 | 102 | 106
Cc1oc(-c2cccc(Cl)c2)nc1CN1CCC(C(=O)NCc2ccc(F)cc2)CC1 | 109 | 111
CCCCN(C)C(=O)C1CCC(CNS(=O)(=O)c2ccc(Cl)cc2)CC1 (stereo not given) | 105 | 112
COc1ccc(-n2c(C)nc3cc(C(=O)NC4CCCCCC4)ccc32)cc1 | 104 | 100
COc1ccc(-c2nc3c(C#N)c[nH]n3c2NC2CCCC2)cc1 | 112 | 109
CNC(=O)Cn1nc(-c2ccc(Cl)cc2)c2ccccc2c1=O | 109 | 108
O=C(NCCc1ccccc1)c1cnn(-c2ccc(F)cc2)c1-n1cccc1 | 107 | 114
Nc1nc2nc(-c3ccccc3)cc(=O)n2[nH]1 | 95 | 97
Cc1ccc(Nc2c(-c3c[nH]c4ccccc34)nc3cc(C)ccn23)cc1 | 110 | 122

# Next section.
SMILES | Polio RdRp inh | Polio RdRp inh intensity
CCOc1ccc(C(=O)Nc2ccc3nc(SCC(=O)N4CCc5ccccc54)sc3c2)cc1 | 102 | 104
CCN(CC)C(=O)c1sc2c(c1C)c(=O)n(-c1ccc(C)c(C)c1)c(=O)n2Cc1cccc(Cl)c1 | 103 | 106
Cc1ccc2nc(SCC(=O)Nc3ccc(C#N)cc3)[nH]c2c1 | 103 | 109
Cc1cccc(NC(=O)/C(C#N)=C/c2ccco2)c1 | 104 | 106
CCc1cccc(C)c1NC(=O)Cn1c(=O)cc(C)c2c(C)nn(-c3cccc(F)c3)c21 | 105 | 107
COc1cc(C2CC(=O)c3c([nH]c(C(=O)OC4CCCCC4)c3C)C2)cc(OC)c1OC (stereo not given) | 105 | 110
Fc1ccc(CSc2nc(NCc3ccccc3)c3ccccc3n2)cc1 | 114 | 116
Cc1ccc(N2CCN(S(=O)(=O)c3nnc(NC(=O)c4ccccc4)s3)CC2)cc1 | 110 | 106
Oc1c(C(c2ccccc2F)N2CCOCC2)sc2nc(-c3ccco3)nn12 (stereo not given) | 106 | 95
Cc1ccc(NC(=O)CN(C)S(=O)(=O)c2ccc3[nH]c4c(c3c2)CCCC4)c(Cl)c1 | 112 | 115
COc1ccccc1NC(=O)CN1C(=O)CC(c2ccc(C)c(C)c2)=Nc2ccccc21 | 106 | 113
COc1ccccc1N1CCN(C(=O)c2nc(SC)ncc2Cl)CC1 | 119 | 121

# (continued)
# Each structure is followed by: Polio RdRp inh | Polio RdRp inh intensity
CCc1ccc(NC(=O)C(=O)NCC(c2cccnc2)N2CCc3ccccc3C2)cc1 (stereo not given)
    106 | 112
CC(=O)c1ccc(NC(=O)c2cc(C)nn2-c2ccccc2)cc1
    113 | 114
O=C(Nc1cccc(F)c1)C1CCN(c2nc3ccccc3nc2C(F)(F)F)CC1
    113 | 117
CCOc1ccc(S(=O)(=O)NCC(c2cccs2)S(=O)(=O)c2ccc(C)cc2)cc1 (stereo not given)
    108 | 111
CCC(C)(C)NC(=O)C1CCN(S(=O)(=O)c2c(C)noc2/C=C/c2ccc(C)cc2)CC1
    105 | 107
CCOc1ccc(CCNC(=O)CCCn2c(=O)c3cccn3c3cccnc32)cc1OCC
    104 | 103
Cc1ccc(C)c(NC(=O)Cn2c(=O)ccc3cc(S(=O)(=O)N4CCCC4)ccc32)c1
    104 | 109
COc1cccc(CSc2nc3n(n2)C(CC(C)C)C(C(=O)Nc2ccccc2C)=C(C)N3)c1 (stereo not given)
    103 | 108
Cc1cc(C)cc(NC(=O)C2(c3cccs3)CCOCC2)c1
    109 | 113
Cc1ccc(O)c(NC(=O)c2cc(-c3ccc4c(c3)OCO4)on2)c1
    103 | 107
COc1cccc2cc(-c3csc(-c4ccc(Cl)cc4)n3)c(=O)oc12
    103 | 98
Cc1ccc(Cl)cc1N1CCN(c2nc3ccc(C(=O)c4ccccc4)cc3n3cnnc23)CC1
    107 | 105
O=S(=O)(c1ccc(Br)cc1)c1nc(-c2ccco2)oc1SCc1ccccc1F
    102 | 103
Cc1ccc(-c2nc(CS(=O)(=O)CC(=O)Nc3ccc(Br)cc3F)c(C)o2)cc1
    108 | 112
CCOC(=O)C1CCN(C(=O)Cn2ncc3c([nH]c4ccccc43)c2=O)CC1
    108 | 117
Clc1ccccc1CNCCCSc1nnnn1-c1ccccc1
    104 | 111
COc1cc(C2c3c(oc4ccc(F)cc4c3=O)C(=O)N2Cc2ccc3c(c2)OCO3)ccc1O (stereo not given)
    103 | 104
Cc1cccc2sc(N(Cc3cccnc3)C(=O)C3CCCCC3)nc12
    110 | 112
CCCCNC(=O)c1cnn2c(C)c(Cc3c(F)cccc3Cl)c(C)nc12
    114 | 103
COc1ccc(C(=O)NCCn2cc(SCc3cccc(F)c3)c3ccccc32)cc1OC
    102 | 105

# (cont.)
# Each structure is followed by: Polio RdRp inh | Polio RdRp inh intensity
CCOC(=O)c1ccc(Nc2nc(N)c3cc(OC)c(OC)cc3n2)cc1
    101 | 103
CCOCCCn1c(=N)c(S(=O)(=O)c2ccccc2)cc2c(=O)n3cc(C)ccc3nc21
    98 | 126
CC(NC(=O)CSC1=NCCS1)c1ccccc1 (stereo not given)
    99 | 103
CC(=O)N1CCN(c2csc3ccc(Cl)cc3c2=O)CC1
    110 | 108
CCOc1ccc(CNc2nc3nc(C)c(Cc4ccccc4)c(=O)n3[nH]2)cc1
    113 | 112
COc1ccc(CNC(=O)CS(=O)Cc2nc(-c3cccc(C)c3)oc2C)cc1 (stereo not given)
    107 | 111
O=C1CS(=O)(=O)C2(C(=O)N(Cc3cccc(F)c3)c3ccccc32)N1c1ccccc1 (stereo not given)
    94 | 102
CCOc1ccc(NC(=O)c2ncn(-c3ccccc3)n2)cc1
    107 | 109
CCCCCn1c(=O)[nH]c2cc(C(=O)N3CCN(c4ccccc4)CC3)ccc2c1=O
    103 | 106
CC(=O)N1CCc2cc(S(=O)(=O)C(C)CC(=O)Nc3ccc(Br)c(C)c3)ccc21 (stereo not given)
    107 | 108
COC(=O)c1ccccc1NC(=O)CSc1nc(=O)cc(N)n1-c1ccccc1
    108 | 111
COc1ccc(C(=O)Nc2cc3c(cc2C(=O)c2ccccc2Cl)OCCO3)cc1
    100 | 102
CCOC(=O)c1ccccc1NC(=O)N1CCCn2nc(C)cc21
    108 | 115
COc1cc(OC)c(C2C=C(C(=O)O)Nc3ncnn32)cc1OC (stereo not given)
    101 | 107
COc1cc(Cl)c(NC(=O)CC(C)S(=O)(=O)c2cc3c(cc2C)NC(=O)CO3)c(OC)c1 (stereo not given)
    108 | 108
COC(=O)c1ccccc1NS(=O)(=O)c1cc2c3c(c1)CC(=O)N3CCC2
    113 | 113
COc1cc(Br)c(C2CC(=O)Nc3cc4c(cc32)OCCO4)cc1OC (stereo not given)
    109 | 111
CCN1C(=O)c2ccccc2S(=O)c2ccc(C(=O)N3CCN(c4cc(Cl)ccc4C)CC3)cc21 (stereo not given)
    104 | 105
O=C(Nc1cc(-c2ccccc2)sc1C(=O)O)c1cccc(F)c1
    104 | 100
O=C(CN1C(=O)COc2ccc(S(=O)(=O)N3CCCC3)cc21)N1CCN(c2cccc(C(F)(F)F)c2)CC1
    101 | 105

# Other results.
# Each structure is followed by: Polio RdRp inh | Polio RdRp inh intensity
COc1ccc(NC(=O)CCCSc2nc(-c3ccco3)cc(C(F)(F)F)n2)cc1OC
    104 | 104
CCOc1ccccc1NC(=O)C(=O)NCCc1sc(-c2cccc(F)c2)nc1C
    106 | 106
O=C(CSc1nc2c(c(=O)[nH]1)CCCC2)Nc1cccc(O)c1
    107 | 112
COc1ccc(NC(=O)CN2C(=O)CC(c3ccc(C)c(C)c3)=Nc3ccccc32)cc1OC
    105 | 110
COc1ccccc1C(=O)Nc1c(C(=O)c2ccccc2)oc2ccccc12
    99 | 99
Cc1nc2ccn(Cc3cccs3)c(=O)c2cc1C(=O)NCc1ccc(Br)cc1
    99 | 104
CCCCOc1ccc(CN2C(=O)C(=O)c3cc(C)ccc32)cc1OC
    106 | 108
Cc1cc(Sc2ccc(Cl)cc2)nc2ccccc12
    106 | 111
CCN1CCN(C(=O)c2ccc3c(c2)N(Cc2ccc(Cl)cc2)C(=O)c2ccccc2S3=O)CC1 (stereo not given)
    108 | 109
CCN(CC)C(=O)C1=C(C)Nc2nc3ccccc3n2C1c1ccccc1F (stereo not given)
    112 | 110
O=C(Nc1ccc(S(=O)(=O)Nc2ncccn2)cc1)c1cc(=O)c2ccccc2o1
    115 | 106
COc1ccc(CNC(=O)c2cc3ccccn3n2)cc1OC
    114 | 103
Cc1ccccc1N1CCN(S(=O)(=O)c2nnc(NC(=O)c3ccccc3)s2)CC1
    106 | 108

# This is a subset; rates above refer to the full screens.
